Sa growth inh: S. aureus growth inhibition; 0.53% of 170,000 active; S. aureus RN4220 growth, OD600, 20 h, 42 °C; stronger effect = lower value; relative growth, % (concentration not given with the values);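 active = growth at 42 °C up to 50% and 20 or more points under that at 30 °C, or under 10% at both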;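 note: 300 nL library stock went into each well; scaled to the means of positive and negative controls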
HCMV NEC inh: inhibitors of HCMV UL50-UL53 nuclear egress complex interaction | HTRF UL50-UL53 interaction, normalized percent inhibition | inhibition, % (concentration not given with the values) | 0.15% of 190,000 active | AID 1918969;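 active = both replicates at 50% or more, plus weaker picks with an unusually low signal ratio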;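 note: stock transfer was 100 nL into about 20 µL; 0% = negative control wells and 100% = wells with untagged competitor protein; inactives centre near -12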
GIV Gai3 FP: inhibitors of GIV GBA-motif binding to rat Galpha-i3; percent of control (FP), % (concentration not given with the values); P08753; Galpha-i3/FITC-GIV peptide fluorescence polarization, 90 min; stronger effect = lower value; scaled: aluminum fluoride 0%, vehicle 100%; 0.42% of 210,000 active; AID 1224905;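 active = replicate mean at 85% of control or lower, very high polarization wells dropped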;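 note: wells of about 15 µL received 100 nL stock; the first replicate is given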
Target sequence (P08753 whole entry, looked up): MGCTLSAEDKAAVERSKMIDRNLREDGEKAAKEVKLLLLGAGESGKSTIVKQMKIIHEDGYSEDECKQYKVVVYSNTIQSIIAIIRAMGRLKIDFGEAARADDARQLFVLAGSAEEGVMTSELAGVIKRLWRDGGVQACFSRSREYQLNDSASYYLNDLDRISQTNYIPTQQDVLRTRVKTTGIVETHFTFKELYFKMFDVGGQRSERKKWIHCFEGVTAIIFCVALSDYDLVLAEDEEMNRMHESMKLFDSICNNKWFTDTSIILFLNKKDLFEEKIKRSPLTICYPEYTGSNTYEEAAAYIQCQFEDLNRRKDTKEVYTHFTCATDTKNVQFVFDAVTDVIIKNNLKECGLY
Sa growth inh second temp: recorded beside Sa growth inh, whose call it bears; relative growth, %; measured here: growth at 30 °C;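 optical density after 20 h as mean of two plates; 100% = untreated growth and lower means inhibition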
Numbers without * were called inactive; x = no result given; & = joins results of further samples.

(1) O=c1c2cccnc2n(Cc2ccc(F)cc2)c(=O)n1Cc1ccc(F)cc1
(2) CCOC(=O)C1=C(CSc2nnc(C3CCCCC3)n2N)NC(=O)NC1c1ccccc1 (stereo not drawn)
(3) CCN1/C(=C(/O)c2ccccc2)C(=O)c2ccccc2S1(=O)=O
(4) COc1cc(NC(=O)CSC)cc(OC)c1
(5) CN1CCN(c2cc(C(=O)O)c3cc(NC(=O)C4CC4)ccc3n2)CC1
(6) CC1CCC(NC(=O)C2CCCN2S(=O)(=O)c2ccc3nc(-c4ccccc4)[nH]c3c2)CC1 (stereo not drawn)
(7) O=C(COc1ccc(-n2cnnn2)cc1)NC(=O)NCc1ccccc1
(8) N=C1c2ccccc2C(=O)C1c1ccccc1 (stereo not drawn)
screen / no.,1,2,3,4,5,6,7,8
Sa growth inh,106.4,92.7,87.6,102.2,x,97.2,92.9,121.5
Sa growth inh second temp,97.2,94.8,88.2,98.3,x,83.4,87.3,104.8
HCMV NEC inh,2.4,-9.3,x,-5.2,-34.4,x,-9.5,-70.0
GIV Gai3 FP,102.8,x,101.6,109.2,101.4,99.3,x,105.3

(9) CCn1nc(C)c(CCN(C)C(=O)Nc2ccc3c(c2)OCCO3)c1C
(10) c1ccc(Nc2ncnc3sc4c(c23)CCCC4)cc1
(11) Cc1cc(C)cc(NC(=O)CCS(=O)(=O)c2cc3c4c(c2)CCN4C(=O)CC3)c1
(12) CN(C)C(=S)SCC(=O)Nc1ccccc1
(13) COc1ccc(-n2c(=S)[nH]c3sc4c(c3c2=O)CCC(C(C)(C)C)C4)cc1 (stereo not drawn)
(14) CCS(=O)(=O)N1CCc2cc(C(=O)Nc3ccc(C(=O)OC)cc3)ccc21
(15) CCCn1nc(-n2cnnc2)c(NS(=O)(=O)c2ccc(Br)s2)c1C
(16) Cc1ccc2sc(NC(=O)/C=C/C(=O)O)nc2c1
screen / no.,9,10,11,12,13,14,15,16
Sa growth inh,x,92.2,99.5,94.2,x,101.0,x,115.2
Sa growth inh second temp,x,88.9,86.4,91.0,x,90.5,x,86.0
HCMV NEC inh,-22.8,x,x,-6.2,-10.8,5.9,19.7,-2.0
GIV Gai3 FP,101.3,102.0,105.2,x,104.5,96.3,106.8,94.1

(17) C[n+]1ccc(/C=C/c2ccccc2F)c2ccccc21
(18) COc1ccccc1C1CC(=O)N(c2cccc(C(F)(F)F)c2)C2=C1C(=O)OC2 (stereo not drawn)
(19) COC(=O)Cc1cc(=O)n2[nH]c(C(F)(F)F)c(-c3ccc(Br)cc3)c2n1
(20) CCOC(=O)c1c(-c2ccc(Br)cc2)csc1/N=C/c1c(C)[nH]n(-c2ccccc2)c1=O
(21) CCN(CC)C(=O)Cn1c(SCC(=O)Nc2ccc(F)cc2)nc2ccccc21
(22) Cc1ccc(-c2csc(N/N=C/c3ccco3)n2)cc1
(23) O=C(NC1CC1)c1cncc(Br)c1
(24) CCOC(=O)c1c(NC(=O)c2nc(SC(C)C)ncc2Cl)sc2c1CCCC2
screen / no.,17,18,19,20,21,22,23,24
Sa growth inh,6.9,96.4,78.1,x,85.2,91.4,97.2,101.6
Sa growth inh second temp,25.4,88.8,87.0,x,81.8,84.9,86.6,91.6
HCMV NEC inh,x,-9.2,10.1,-10.2,x,-1.3,-17.9,-5.6&-15.1
GIV Gai3 FP,99.4,102.5,110.7,75.2*,96.6,112.8,104.2,101.8&113.4

(25) CCCCn1c(CCCN2C(=O)c3ccccc3C2=O)nc2ccccc2c1=O
(26) O=C(CSc1nc2ccc(N=Cc3ccccc3O)cc2s1)NCCOc1ccccc1
(27) CCN1CCN(CCCN)CC1
(28) CCc1cc2c3c([nH]c2cc1S(=O)(=O)NCC1CCCO1)CCCC3=O (stereo not drawn)
(29) CC(NC(=O)COc1ccc(-c2nnco2)cc1)c1ccc(Cl)cc1Cl (stereo not drawn)
(30) COc1ccc(N(C(=O)c2ccccc2)S(=O)(=O)c2cccc3cccnc23)cc1
(31) CC(C)C(NC(N)=O)C(=O)Nc1cccc2ncccc12 (stereo not drawn)
(32) Cn1nc(C(=O)NCCCN2CCN(C3CCCCC3)CC2)c2c1-c1ccccc1SC2
screen / no.,25,26,27,28,29,30,31,32
Sa growth inh,94.8,89.4,94.0,x,91.9,116.5,101.9,x
Sa growth inh second temp,87.3,81.3,95.0,x,92.2,95.7,88.0,x
HCMV NEC inh,-36.2,-3.2,-3.4,-36.5,-21.2,x,-21.0,-38.1
GIV Gai3 FP,101.0,x,94.2,101.4,x,105.2,x,99.7

Reformatted: entries from further up.
Order of values: Sa growth inh | Sa growth inh second temp | HCMV NEC inh | GIV Gai3 FP
(21) CCN(CC)C(=O)Cn1c(SCC(=O)Nc2ccc(F)cc2)nc2ccccc21
  85.2 | 81.8 | x | 96.6
(22) Cc1ccc(-c2csc(N/N=C/c3ccco3)n2)cc1
  91.4 | 84.9 | -1.3 | 112.8
(23) O=C(NC1CC1)c1cncc(Br)c1
  97.2 | 86.6 | -17.9 | 104.2
(24) CCOC(=O)c1c(NC(=O)c2nc(SC(C)C)ncc2Cl)sc2c1CCCC2
  101.6 | 91.6 | -5.6&-15.1 | 101.8&113.4
(25) CCCCn1c(CCCN2C(=O)c3ccccc3C2=O)nc2ccccc2c1=O
  94.8 | 87.3 | -36.2 | 101.0
(26) O=C(CSc1nc2ccc(N=Cc3ccccc3O)cc2s1)NCCOc1ccccc1
  89.4 | 81.3 | -3.2 | x
(27) CCN1CCN(CCCN)CC1
  94.0 | 95.0 | -3.4 | 94.2
(28) CCc1cc2c3c([nH]c2cc1S(=O)(=O)NCC1CCCO1)CCCC3=O (stereo not drawn)
  x | x | -36.5 | 101.4
(29) CC(NC(=O)COc1ccc(-c2nnco2)cc1)c1ccc(Cl)cc1Cl (stereo not drawn)
  91.9 | 92.2 | -21.2 | x
(30) COc1ccc(N(C(=O)c2ccccc2)S(=O)(=O)c2cccc3cccnc23)cc1
  116.5 | 95.7 | x | 105.2
(31) CC(C)C(NC(N)=O)C(=O)Nc1cccc2ncccc12 (stereo not drawn)
  101.9 | 88.0 | -21.0 | x
(32) Cn1nc(C(=O)NCCCN2CCN(C3CCCCC3)CC2)c2c1-c1ccccc1SC2
  x | x | -38.1 | 99.7

(continued)
(33) N=c1sccn1CC(=O)NCCc1ccc(Cl)cc1Cl
(34) CCN1CCN(c2ccc(N3CCN(C(=O)c4ccc(C(F)(F)F)cc4)CC3)nn2)CC1
(35) CCCn1c(C)ccc(-c2noc(CCCC(=O)NC(C)c3ccc(C)cc3)n2)c1=O (stereo not drawn)
(36) C=CCNC(=O)c1ccccc1SC
(37) CSc1cccc(NS(=O)(=O)c2ccc3c(c2)n(C)c(=O)c(=O)n3C)c1
(38) CCOC(=O)c1cc(-c2ccccc2)n(CC(=O)Nc2cc(Cl)c(OC)cc2OC)c1C
(39) O=c1c(S(=O)(=O)c2cccc(Cl)c2)cn(Cc2ccccc2)c2cc(N3CCOCC3)c(F)cc12
(40) COc1ccc(OC)c(NC(=O)C(CC(=O)O)Cc2ccc(C)cc2)c1 (stereo not drawn)
screen / no.,33,34,35,36,37,38,39,40
Sa growth inh,100.5,88.5,x,102.4,121.9,129.7,99.5,95.9
Sa growth inh second temp,87.1,87.7,x,101.6,95.6,100.9,97.8,100.5
HCMV NEC inh,-9.3,-35.1,-33.3,1.4,x,x,x,1.9
GIV Gai3 FP,x,100.7,98.8,100.4,105.0,108.3,105.9,100.1

(41) CC(C)NC(=O)c1oc2ccccc2c1CSC1=NCCS1
(42) CCC(C)NC(=O)CSC1=Nc2ccccc2C2=NC(c3ccccc3)C(=O)N12 (stereo not drawn)
(43) CN(CCc1noc(COc2ccccc2F)n1)C(=O)C1CCC1
(44) O=C(Nc1nc2nc(-c3ccccc3)cc(=O)n2[nH]1)c1ccc(Cl)cc1
(45) Fc1cccc(F)c1-c1nnc(-c2ccccc2OC(F)(F)F)o1
(46) CSc1nc2ccc(NC(=O)c3ccccc3-n3cnnn3)cc2s1
(47) CC1CC(C)CN(S(=O)(=O)c2ccc3[nH]cc(C(=O)N4CCC5(CC4)OCCO5)c(=O)c3c2)C1 (stereo not drawn)
(48) Cc1nc(N)nc(C)c1Cc1ccccc1
screen / no.,41,42,43,44,45,46,47,48
Sa growth inh,92.9,95.4,x,86.6,84.6,95.2,109.7,99.6
Sa growth inh second temp,89.0,89.7,x,90.2,73.6,89.9,87.2,94.1
HCMV NEC inh,-24.5,-28.9,3.1,-0.4,-30.3,15.8,x,0.2
GIV Gai3 FP,x,98.2,109.2,95.9,101.6,x,96.8,x

(49) N#C/C(=C\c1cccnc1)C(N)=S
(50) Cc1ccc(C(=O)N2CCN(C(=O)c3ccccc3)C2)cc1
(51) COc1ccc(CNC(=O)c2c3c(nc4ccccc24)C(=O)N(C2CCCCC2)C3)cc1
(52) CC(C)(C)NC(=O)NCc1ccncc1
(53) O=C(Cc1c(Cl)cccc1Cl)NCCSc1n[nH]c(=O)[nH]c1=O
(54) N/C(=N\OC(=O)c1ccccc1F)c1ccccc1
(55) Cc1oc2ccc(O)c(CN3CCCCC3)c2c1C(=O)NC1CCCC1
(56) N#Cc1ccsc1NC(=O)c1cc(Cl)sc1Cl
screen / no.,49,50,51,52,53,54,55,56
Sa growth inh,68.8,116.4,99.0,80.7,95.9,81.7,x,55.8
Sa growth inh second temp,70.8,87.6,88.9,91.7,91.9,64.2,x,9.5
HCMV NEC inh,-12.9,x,x,-9.2,-22.4,-17.2,-9.9,-12.6
GIV Gai3 FP,101.5,97.5,100.1,97.1,x,98.0,104.8,108.3

(57) Cc1c(C)n(-c2cccc(Cl)c2)c2ncnc(Cl)c12
(58) Cc1cc2nc3s/c(=C/c4cc5c(cc4Br)OCO5)c(=O)n3c2cc1C
(59) O=C(CSc1nnc2ccccn12)NC(=O)NC1CCCC1
(60) Cc1ccc2c(c1)c(=O)c(C(=O)c1ccccc1)cn2Cc1ccccc1F
(61) CCOc1ccccc1NC(=O)Cn1c(=O)n(Cc2ccccc2)c(=O)c2cccnc21
(62) CC(=O)Nc1ccc(S(=O)(=O)NCc2ccc(C(=O)NC3CCCC(C)C3C)cc2)cc1 (stereo not drawn)
(63) CC(=O)N1CCN(c2nc(-c3ccccc3Cl)c3cc(Br)ccc3n2)CC1
(64) COc1ccccc1CNC(=O)c1cc(-c2ccccc2)n[nH]1
screen / no.,57,58,59,60,61,62,63,64
Sa growth inh,x,x,91.0,92.5,81.9,100.7,x,99.6
Sa growth inh second temp,x,x,85.7,90.1,102.4,81.1,x,93.9
HCMV NEC inh,-19.5,-23.8,-18.0,-28.6,-9.8,x,-8.7,x
GIV Gai3 FP,91.9,98.0,x,98.3,110.0,102.7,100.2,105.6

(65) CCNCC1Cc2ccccc2O1 (stereo not drawn)
(66) Cc1[nH]c2ccccc2c1C(=O)CSc1nnc(N)s1
(67) Cc1cc(C=C(C(N)=O)C(N)=O)c(C)cc1C=C(C(N)=O)C(N)=O
(68) COCc1nnc(C(=O)Nc2cccc(C(=O)N3CCN(c4ccccn4)CC3)c2)s1
(69) COc1ccccc1N(C=O)/C=C1\Sc2ccccc2C1=O
(70) CC(C)(C)NC(=O)NCc1n[nH]c(=O)c2ccccc12
(71) O=C(COC(=O)c1ccccc1NCc1ccco1)c1ccc(Cl)cc1
(72) O=C(NCc1csc2ccccc12)c1cc(F)cc2c1OCOC2
screen / no.,65,66,67,68,69,70,71,72
Sa growth inh,93.6,89.5,103.3,x,x,99.0,102.5,99.5
Sa growth inh second temp,91.8,76.3,93.8,x,x,84.6,90.4,103.3
HCMV NEC inh,-12.6,-9.8,-41.6,-15.3,-70.4,-25.7,-7.5,-3.5
GIV Gai3 FP,x,99.8,x,107.7,326.7,98.6,102.6,109.6

(73) CC(C(=O)Nc1ccc(F)cc1Cl)N(C)CC1COc2ccccc2O1 (stereo not drawn)
(74) Cc1ccc2c(c1)OC=CC(C(=O)Nc1ccc(N3CCOCC3)cc1)=C2
(75) NC(N)=NS(=O)(=O)c1ccc(NC(=O)/C=C/C(=O)O)cc1
(76) Cc1oc(-c2ccc(C(=O)NCCc3cnc[nH]3)cc2)nc1CN1CCN(c2ccccc2)CC1
(77) CCCNC(=O)N1[C@H](c2ccc(C)s2)[C@@H](C)C(=O)[C@@H](C)[C@@H]1c1ccc(C)s1
(78) CN(C)c1ccc(CNC(=O)c2ccc3nc(Cc4ccccc4)oc3c2)cc1
(79) Cc1csc(NC(=O)c2c(O)c3cccc4c3n(c2=O)CCC4)n1
(80) O=C(COc1ccc(Br)cc1)NCCc1nc(-c2ccccc2)no1
screen / no.,73,74,75,76,77,78,79,80
Sa growth inh,115.0,x,89.7,x,100.4,85.9,100.0,x
Sa growth inh second temp,93.1,x,85.0,x,83.8,87.8,108.3,x
HCMV NEC inh,-13.1,0.6,-14.2,-29.5,-13.2,x,-7.6,-9.2
GIV Gai3 FP,x,101.0,x,101.6,97.3,102.3,93.5,105.8

Screens (PubChem)
